Screening results from PubChem BioAssay.
CRE-bla Fsk: Cell signaling CRE-BLA (Fsk stim). CHO CRE-bla reporter (cAMP response element driving beta-lactamase), forskolin EC10, beta-lactamase ratio. Potency, µM (top dose mostly 38.2 µM), for the others: top-dose activity change, negative = inhibition, hits mostly activators. 71,000 tested, 2.5% active; active = well fitted activation curve with a large enough effect in the signal ratio, with a control signal flat, not every such curve was filed as active; inconclusive = small, poorly fitted or top-dose-only effect, or effect the other way, or a change in a side signal; the % refers to the signal ratio; also: potency is read from the fitted curve at half-maximal effect; % of control where 0% means no effect
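CHO CRE-bla cells, overnight plating in Opti-MEM with 0.5% dialyzed FBS; cpd titration + EC10 NKH 477, 3 h 37 °C; CCF4 2 h RT; ex 405/em 460 vs 530 ratio → %Activity, AC50.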
Texas Red fluor: qHTS Assay for Spectroscopic Profiling in Texas Red Spectral Region; Compound fluorescence, Texas Red channel, 547/618 nm; active compounds read high; max dye-equivalent concentration, M; 59,000 tested, 0.06% active; AID 587, 2007; in the data active = max dye-equivalent concentration above about 10 nM; inconclusive = between about 1.1 nM and that limit
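Fluorescence at ex 547/em 618 nm, normalized against an on-plate Texas Red standard series to give dye-equivalent concentration per compound concentration. Buffer 100 mM Tris, pH 8.0; 15 min RT incubation before CCD imaging.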
GFP derepression: qHTS Assay for Epigenetic Modulators | Potency, µM (titrated, usually from 46.1 µM), for the others: at the highest dose GFP derepression (activation) | mouse C127i GFP locus derepression, cytometry, 30 h | 68,000 tested, 0.09% active | AID 597, 2007; also: % of control where 0% means no effect
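Murine C127i mammary cells carrying a silenced, stably integrated CMV-driven GFP reporter were treated with compound for 30 hours at 37 C. After PBS washes, GFP-positive cells were counted by laser-scanning microplate cytometry.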
UbGFP stabilizer: Ubiquitin-GFP Assay; Ubiquitin-GFP reporter cells, proteasome inhibition, GFP fluorescence; response scale: untreated = 0%, 10 µM MG-132 = 100%; Potency, µM (highest dose often 45.9 µM), without a hit: at the highest dose activation (GFP accumulation), actives largely listed as activators; 67,000 tested, under 10 active; AID 526, 2006; active = well fitted activation curve with a large enough effect, not every such curve was filed as active; inconclusive = small, poorly fitted or top-dose-only effect, or another doubt; inactive = no such curve, though single readings can be large or run the other way; also: potency is read from the fitted curve at half-maximal effect
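U2OS cells expressing ubiquitin(G76V)-GFP, seeded overnight in 0.5% FBS medium, then treated 4 hr at 37 C across 46 uM to 2.9 nM. GFP-positive cells counted by laser cytometry (488 ex/515 em); %activity scaled between basal and 10 uM MG-132.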
HBB splice mod: qHTS Assay for Modulators of Hemoglobin Beta Chain Splicing; HBB splicing reporter cell assay, activation; EGFP reporter with mutant IVS2-654 intron; response scale: normalised to 500 nM splice-correcting PNA; Potency, µM (series often up to 46.1 µM), without a hit: at the top dose activation, usual class: activators; 65,000 tested, 0.06% active; also: potency is read from the fitted curve at half-maximal effect; 0% is about no effect
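HeLa cells stably expressing EGFP interrupted by mutant beta-globin intron 2 (IVS2-654), 500/well in 2% FCS. Treated with compound for 2 days at 37C. Splicing correction scored as total well GFP intensity (488 nm excitation, 500-520 nm emission); 500 nM antisense PNA served as control.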
Hsp90 Hop PPI: qHTS Assay for Disrupters of an Hsp90 Co-Chaperone Interaction; Hsp90 C-terminal peptide / TPR2A (Hop) interaction, human; AlphaScreen TPR2A-His6 binding biotin-Hsp90 C-terminal peptide; Potency, µM (highest dose often 57 µM), without a hit: top-dose activity change, negative = inhibition; 71,000 tested, 0.44% active; AID 595, 2007; active = well fitted curve in either direction with a large enough effect; inconclusive = small, poorly fitted or top-dose-only effect, or another doubt; also: potency is read from the fitted curve at half-maximal effect; % is scaled to controls: 0 for no effect and ±100 for the full control effect; many of its hits are not listed in these tables
Fluorescein autfl: qHTS Assay for Spectroscopic Profiling in Fluorescein Spectral Region; max fluorescein-equivalent concentration, M; Compound autofluorescence, 480/540 nm, fluorescein-equivalent; active compounds read high; AID 593, 2007; 59,000 tested, 0.91% active; in the data active = max fluorescein-equivalent concentration above about 10 nM; inconclusive = between about 1.1 nM and that limit
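In this qHTS profile, compound fluorescence was measured with a 480 nm/540 nm filter pair following a 15-min room-temperature incubation in 100 mM Tris (pH 8.0). A six-point fluorescein series on each plate served for normalization.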
An asterisk follows results filed as active; i = inactive; ? = inconclusive; · = no result given; & = joins results of further samples; [ ] = dose if it differs, or a comment. Unless noted, calls follow the shape of the dose curve; as a rule, active = well fitted curve in the direction sought with a large enough effect; inconclusive = small, poorly fitted or top-dose-only effect, or another doubt; inactive = no such curve, though single readings can be large; an effect the other way counts as inactive or inconclusive. A portion of the library; rates above refer to the full screens.

mol	CRE-bla Fsk	Texas Red fluor	GFP derepression	UbGFP stabilizer	HBB splice mod	Hsp90 Hop PPI	Fluorescein autfl
C[C@@H]1O[C@@H](O[C@H]2C[C@@H](O)[C@@]3(CO)[C@H]4[C@H](O)C[C@]5(C)[C@@H](C6=CC(=O)OC6)CC[C@]5(O)[C@H]4CC[C@@]3(O)C2)[C@@H](O)[C@H](O)[C@H]1O	15.4%[7.6 µM]	i	-6.5%[9.22 µM]	-2.0%[9.17 µM]	2.6%[9.22 µM]	-3.4%[11 µM]	?
NNC(N)=O	?	i	-1.2%	3.0%	0.5%&0.6%	-2.0%&-6.3%	?
C=CCN1CC[C@]23c4c5ccc(O)c4O[C@@H]2C(=O)CC[C@]3(O)[C@H]1C5	-21.7%	i	-1.4%	13.6%	0.8%[20.6 µM]	-8.1%	i
CC(C)NC[C@@H](O)COc1cccc2[nH]ccc12	?	i	0.0%	6.2%	2.8%[20.6 µM]	3.3%	?
OCCN1CCN(CCCN2c3ccccc3Sc3ccc(C(F)(F)F)cc32)CC1	-5.7%[17.1 µM]	i	1.5%[20.6 µM]	-10.0%[20.5 µM]	-2.1%[20.6 µM]	-12.1%[26 µM]	?
O=c1[nH]c2ccccc2n1CCCN1CCC(n2c(=O)[nH]c3cc(Cl)ccc32)CC1	0.3%[7.6 µM]	?	1.5%[20.6 µM]	-5.5%[9.17 µM]	2.3%[9.22 µM]	2.0%[11 µM]	?
CC[C@@H]1CN2CCc3cc(OC)c(OC)cc3[C@H]2C[C@@H]1C[C@H]1NCCc2cc(OC)c(OC)cc21	?	?	0.0%[9.22 µM]	2.5%	0.6%[20.6 µM]	-3.9%	?
O=C1CCCN1CC#CCN1CCCC1	-4.6%&-0.5%	i	1.0%&-2.2%	1.3%&1.5%	-1.3%	-2.3%&-3.1%	i
CN1CCc2cc3c(cc2[C@@H]1O)OCO3	?	i	1.1%[20.6 µM]	-5.8%[20.5 µM]	-1.7%[20.6 µM]	-3.3%[26 µM]	?
CNCCC(Oc1ccc(C(F)(F)F)cc1)c1ccccc1 (centres undefined)	·	i	1.6%[20.6 µM]	·	·	·	i
CC(C)NC[C@H](O)COc1cccc2[nH]ccc12	?	·	1.1%	3.9%	·	-2.2%	·
CC[C@]1(OC(=O)CN)C(=O)OCc2c1cc1n(c2=O)Cc2cc3ccccc3nc2-1	0.1µM*	i	5.6%[9.22 µM]	-5.1%[9.17 µM]	4.2%[9.22 µM]	-2.9%[11 µM]	?

Part of the list above in order of length of the SMILES, falling.
mol	CRE-bla Fsk	Texas Red fluor	GFP derepression	UbGFP stabilizer	HBB splice mod	Hsp90 Hop PPI	Fluorescein autfl
C[C@@H]1O[C@@H](O[C@H]2C[C@@H](O)[C@@]3(CO)[C@H]4[C@H](O)C[C@]5(C)[C@@H](C6=CC(=O)OC6)CC[C@]5(O)[C@H]4CC[C@@]3(O)C2)[C@@H](O)[C@H](O)[C@H]1O	15.4%[7.6 µM]	i	-6.5%[9.22 µM]	-2.0%[9.17 µM]	2.6%[9.22 µM]	-3.4%[11 µM]	?
CC[C@]1(OC(=O)CN)C(=O)OCc2c1cc1n(c2=O)Cc2cc3ccccc3nc2-1	0.1µM*	i	5.6%[9.22 µM]	-5.1%[9.17 µM]	4.2%[9.22 µM]	-2.9%[11 µM]	?
OCCN1CCN(CCCN2c3ccccc3Sc3ccc(C(F)(F)F)cc32)CC1	-5.7%[17.1 µM]	i	1.5%[20.6 µM]	-10.0%[20.5 µM]	-2.1%[20.6 µM]	-12.1%[26 µM]	?
CC(C)NC[C@@H](O)COc1cccc2[nH]ccc12	?	i	0.0%	6.2%	2.8%[20.6 µM]	3.3%	?
